# HSD17B inh: blocks hydroxysteroid 17-beta dehydrogenase activity | Q99714 | recombinant HSD17B10, NADH fluorescence kinetic; many of its hits are not listed in these tables | Potency, µM (top dose mostly 57.1 µM), without a hit: at the top dose activity change, negative = inhibition, most hits filed as inhibitors | 75,000 compounds, 7.6% hits; active means well fitted inhibition curve with a large enough effect; inconclusive means small, poorly fitted or top-dose-only effect; inactive means no such curve, though single readings can be large or run the other way;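 further: the protocol describes HADH2 (HSD17B10) and not the HSD17B4 of the title; nearly all actives have a fitted effect of over 70% in size; most hits overshoot -100% by far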
#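 20 nM HADH2, pH 9.0 Tris/Tween; cpd preinc 15 min RT; start w/ 1 mM NAD+ + 90 uM b-hydroxybutyryl-CoA; kinetic fluor ex360/em450 q30s x 4 min; delta last-first.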
# Numbers without * were called inactive; ? = inconclusive; [ ] = remark or other dose. On the % scale 0 is the no-effect control and ±100 the full control effect; potency means the concentration at half of the fitted maximal effect.
# Start of the listing, in advance (2 entries):
Structure | HSD17B inh
COc1ccc(CC(NC(C)=O)C(=O)NC2CCN(C(=O)Nc3ccc(C#N)cc3)CC2)cc1OC (stereo unspecified) | 2.6%
CCCCNc1cc(=O)n(C)c(=O)n1C | 2.5%

# This part in full, from the start:
Structure | HSD17B inh
COc1ccc(CC(NC(C)=O)C(=O)NC2CCN(C(=O)Nc3ccc(C#N)cc3)CC2)cc1OC (stereo unspecified) | 2.6%
CCCCNc1cc(=O)n(C)c(=O)n1C | 2.5%
COc1ccc(CNC(=O)c2cnc3n(c2=O)CCS3)cc1 | -8.8%
CC(C)OC(=O)Cn1c(=O)sc2ccccc21 | 5.7%
CCN(CC)CCN1C(=O)C(O)=C(C(=O)c2cccs2)C1c1ccc(C)o1 (stereo unspecified) | -4.0%
CCN1CCN(CCCNC(=O)c2cn(CCOC)c(=O)c3c2c2ccccc2n3C)CC1 | 25.1µM*
COc1ccccc1OCCCn1c(C)c(C#N)c2ccccc21 | -6.8%
Cc1ccc(-n2ncc(C(=O)O)c2C2CCN(C(=O)OC(C)(C)C)CC2)cc1 | -1.3%
Cc1ccc(S(=O)(=O)NCC(=O)OCC(=O)c2cccs2)cc1 | -2.1%
Cc1ccc(S(=O)(=O)Nc2ccccc2C(=O)O)c(C)c1 | ?
CC(NC(=O)COc1ccc(Br)cc1)C(=O)O (stereo unspecified) | 3.8%
COc1ccc(OC)c(NC(=O)CCC(=O)Nc2nnc(C(F)(F)F)s2)c1 | 8.1%
N#Cc1ccsc1NC(=O)COC(=O)CCCSc1nc2ccccc2s1 | -25.0%
Cc1nn(C(=O)CN2C(=O)c3ccccc3C2=O)c(C)c1Br | -0.1%
CCc1ccccc1NC(=O)c1nnn(CC(=O)Nc2ccccc2C)c1N | ?
COc1ccccc1CC(=O)NC1CC(C)(C)NC(C)(C)C1 | -2.8%
Cc1cc2ccccc2n1CCNC(=O)c1ccccc1 | -21.3%
CCOC(=O)c1cnc(SCC(=O)N2CCN(c3ccccc3)CC2)nc1N | -14.0%
CC(=O)C1=C(C)NC(SCC(=O)c2ccc(Cl)cc2)=C(C#N)C1c1ccco1 (stereo unspecified) | -23.0%
CCOc1ccc(CN(C(=O)c2ccco2)C2CCS(=O)(=O)C2)cc1 (stereo unspecified) | 2.8%
Cc1ccc(OCC(O)CN2CCN(c3ccccc3)CC2)cc1 (stereo unspecified) | 2.4%
Nc1ccc(N=Nc2c(S(=O)(=O)O)cc3ccccc3c2S(=O)(=O)O)cc1 | -2.3%[11.4 µM]
CC(=O)Nc1nonc1-c1nc2ccccc2n1N(C(C)=O)C(C)=O | ?
COc1ccc2[nH]c(=O)c(CN(C(=O)c3ccncc3)C(C)C)cc2c1 | 20µM*
CCOC(=O)N1CCN(C(=O)COc2cc(=O)n(C)c3ccccc23)CC1 | 0.3%

# New compounds follow
Structure | HSD17B inh
COc1ccc(NC(=O)CCn2nc(C)cc2C)cc1 | -3.6%
Cc1ccc(Cl)cc1NS(=O)(=O)c1c(C)[nH]c(=O)[nH]c1=O | -6.3%
Cc1ccc(C)c2[nH]c(=O)c(CCNC(=O)C(C)C)cc12 | 8.2%
CCCCc1c(C)c2ccc(OC)c(/C(C)=N\O)c2oc1=O | 31.6µM*
CCn1cc(CNC(=O)CCc2ccc(OC)cc2)cn1 | 9.6%
Cn1c(CSCc2ccccc2Cl)nnc1SCC(=O)Nc1nccs1 | 7.7%
NC(=O)c1c(NC(=O)Cc2cccs2)sc2c1CCC2 | ?
CCCCC(CC)CNC(=O)CCS(=O)(=O)c1cccc2nonc12 (stereo unspecified) | -0.2%
O=C(NC1CC1)C1CCN(c2ccc(S(=O)(=O)N3CCOCC3)cc2)CC1 | 12.8%
CC(O)c1nc2ccccc2n1Cc1nnc(-c2ccc(Cl)cc2)o1 (stereo unspecified) | 2.9%
COCCn1c(=O)cnc2cnc(N3CCN(C)CC3)nc21 | 25.1µM*
CCOc1ccc2[nH]c(C)c(CN3CCOCC3)c(=O)c2c1 | -27.2%
CC(O)/C=C/c1ccc2ccccc2n1 (stereo unspecified) | 4.4%
CN1CCN(C(=O)CN(Cc2ccc(Cl)cc2)S(C)(=O)=O)CC1 | -0.4%
O=C(NCc1nc2ccccc2[nH]1)[C@H]1C[C@@H]1[C@H](NP(=O)(c1ccccc1)c1ccccc1)c1ccccc1 | -1.9%
CSc1ccn(CCC(=O)O)c(=O)n1 | 3.6%
CN(c1ccc(C(=O)Nc2nccs2)cc1)S(=O)(=O)c1ccccc1 | -8.4%
CCC(CC)COC(=O)C(C#N)c1nc2ccccc2nc1N1CCN(CC)CC1 (stereo unspecified) | -21.8%
Cc1nn(-c2ccccc2)c2sc(C(=O)O)cc12 | 8.8%
COC(=O)C1=C(N)OC2=C(C(=O)CC(C)(C)C2)C1c1cccs1 (stereo unspecified) | -12.7%
Cc1[nH]c(C)c(C(=O)O)c1CNC1CCCCC1C (stereo unspecified) | 6.5%
Cc1ccc(-c2nc3ccccc3[nH]2)s1 | 31.6µM*
O=S(=O)(NC1CCCCCCC1)c1cccs1 | -1.1%
Cc1cccc(NS(=O)(=O)c2ccc(Oc3ccccc3)cc2)n1 | 31.6µM*
C/C(=C\COc1cc(=O)[nH]c2ccccc12)CCC(O)C(C)(C)O (stereo unspecified) | 2.5%

# Next section:
Structure | HSD17B inh
CC1(C)Cc2c(sc3c2c(=N)n(Cc2ccco2)c(=O)n3Cc2ccccc2)CO1 | -17.4%
Cc1cc(C)nc(SCC(=O)O)n1 | 2.5%
CCOC(=O)c1oc2cccc(O)c2c1CN(Cc1ccccc1)C(C)=O | -23.9%
c1ccc(Cn2nnc3c(N4CCOCC4)ncnc32)cc1 | -2.1%
CCOC(=O)C1CCCN(CCC(=O)Nc2cccc(F)c2)C1 (stereo unspecified) | -0.5%
Cc1ccc(Cn2nnc3c(=O)[nH]c(C4CCN(S(=O)(=O)c5ccc(C)cc5)CC4)nc32)cc1 | -14.8%
CCOc1cc2c3c(c1)C1(C(=O)N3C(C)(C)C=C2C)C(C#N)=C(N)Oc2cc(O)ccc21 (stereo unspecified) | -6.1%
Cn1c(SCC(=O)N2CCCCCC2)nc2c([nH]c3ccccc32)c1=O | ?
O=c1c2cnn(-c3ccccc3)c2ncn1Cc1cccnc1 | -1.0%
CS(=O)(=O)N1CCC[C@@]2(CCN(c3ncccn3)C2)C1 | ?
Cc1cc(=O)[nH]c2ccccc12 | 10.3%
Cc1nnc(SCC(=O)Nn2cnnc2)s1 | 2.7%
O=C(Nc1ccc(-c2cn3ccsc3n2)cc1)C1CC1 | 5.5%
O=C(Nc1ccc2ccccc2c1)[C@H]1C[C@@H]1[C@H](NP(=O)(c1ccccc1)c1ccccc1)c1ccccc1 | -28.6%
CCOc1ccc(CNC(=O)C2CCC(=O)N2C2CCCC2)cc1OC (stereo unspecified) | -0.8%
Cc1ccc(NC(=O)N(Cc2ccc3c(c2)OCO3)Cc2cc3cc4c(cc3[nH]c2=O)OCCO4)cc1 | -15.0%
CCn1c(SCC(=O)N2CCc3ccccc32)nnc1-c1c[nH]c2ccccc12 | 9.5%
CCOC(=O)CCN1C(=O)[C@H]2[C@H]3[C@H](O)[C@H](O)C/C(=N/NC(=O)OCC)[C@H]3CC[C@@H]2C1=O | -0.1%[11.4 µM]
COc1ccc(Cl)cc1-n1c(C)cc(C(=O)O)c1C | -2.1%
c1cncc(CNC2CCCc3ccccc32)c1 (stereo unspecified) | 10.1%
NC(=O)C1CCN(C(=O)CN2C(=O)c3ccccc3S2(=O)=O)CC1 | 9.2%
CCc1nc2ccccc2c(=O)n1NC(=O)c1c(O)c2cccc3c2n(c1=O)CCC3 | -0.8%
COc1ccccc1S(=O)(=O)Cc1ccc(C(=O)N2CCOCC2)o1 | 9.0%
CC1CC(C)CN(S(=O)(=O)c2cccc3cccnc23)C1 (stereo unspecified) | 6.3%
CCN(CC)CCN1C(=O)c2cccc3cc(N)cc(c23)C1=O | 3.1%[11.4 µM]

# Shown as labelled records: 4 of the compounds above.
> O=C(Nc1ccc2ccccc2c1)[C@H]1C[C@@H]1[C@H](NP(=O)(c1ccccc1)c1ccccc1)c1ccccc1
- HSD17B inh: -28.6%
> CCOc1ccc(CNC(=O)C2CCC(=O)N2C2CCCC2)cc1OC (stereo unspecified)
- HSD17B inh: -0.8%
> Cc1ccc(NC(=O)N(Cc2ccc3c(c2)OCO3)Cc2cc3cc4c(cc3[nH]c2=O)OCCO4)cc1
- HSD17B inh: -15.0%
> CCn1c(SCC(=O)N2CCc3ccccc32)nnc1-c1c[nH]c2ccccc12
- HSD17B inh: 9.5%

# The list goes on:
Structure | HSD17B inh
Cc1nn(C)c(C)c1S(=O)(=O)N1CCCC(C(=O)N2CCN(c3ccccc3)CC2)C1 (stereo unspecified) | 3.1%
CCOc1ccc2oc(-c3ccccc3)c(C(=O)O)c2c1 | 31.6µM*
Oc1ccccc1OCc1nc2ccccc2s1 | ?
O=C(Nc1nc(-c2nc3ccccc3s2)cs1)C1COc2ccccc2O1 (stereo unspecified) | 31.6µM*
COc1ccc(OC)c(NC(=O)Cn2c(-c3ccc(Cl)cc3)noc2=O)c1 | 11.8%
OC[C@H](S)CS | ?
Nc1ccc(Nc2ccccc2N)cc1 | -6.3%
O=C(c1ccccc1-c1nc(-c2ccc(Cl)cc2)no1)N1CCCC1 | 3.3%
Cc1cc(-c2csc(NC(=O)c3cc4ccccc4o3)n2)c(C)n1C | -25.5%
CCOC(=O)N1CCN(C(=O)Cn2c(C)cc3ccccc3c2=O)CC1 | ?
CCc1ccc(NC(=O)CSc2nnc(Cc3cccn3C)n2-c2ccc(F)cc2)cc1 | -4.7%
COc1ccc(OC)c(S(=O)(=O)n2cnc3cc(C)c(C)cc32)c1 | -7.6%
CCCSc1nnc(CN2CCOCC2)n1C | -11.1%
COc1ccc(CNC(=O)Cn2cc3c(n2)CCCCC3)cc1 | 5.6%
Cc1cc(OCc2nn[nH]n2)c2c(C)c(CC(=O)O)c(=O)oc2c1 | 25.1µM*
COc1ccc(CNC(=O)CSc2nnnn2-c2ccc(O)cc2)cc1 | 6.3%
O=C(O)CCCC(=O)Nc1ccccc1-n1ccnc1 | -0.2%
CC1=CC(=C2N=C(c3ccccc3)OC2=O)C=C(C)O1 | 12.0%
Cc1cc(C)nc(NS(=O)(=O)c2ccc(NC(=O)Cn3c(=O)oc4ccccc43)cc2)n1 | -0.4%
CN1C=CC=C/C1=C1\SC(=S)N(C2CCCCC2)C1=O | -18.1%
COc1ccc(Nc2nc(N)nc(CN3CCN(c4ccccn4)CC3)n2)cc1 | -8.0%
Nc1nc2ccc(N3CCOCC3)cc2s1 | -7.0%
CC(=O)C1=C(O)C(=O)N(Cc2cccnc2)C1c1ccccc1 (stereo unspecified) | -0.9%
O=C(NCC1CCCO1)c1cccs1 (stereo unspecified) | 2.8%
CC(C)NC(=O)CCNC(=O)c1ccc(F)cc1 | 8.0%

# (listing goes on)
Structure | HSD17B inh
CCOC(=O)CSC(C)C(=O)Nc1nnc(C(C)C)s1 (stereo unspecified) | -5.7%
O=c1c2cn[nH]c2[nH]c(=S)n1-c1ccccc1F | 1.6%
O=C(NC1CCCCCCC1)c1c(O)c2ccccc2[nH]c1=O | 7.0%
COc1ccc(OC)c(-c2cc(C(=O)NCc3ccco3)no2)c1 | -15.0%
CCC(=O)c1cc(F)c(N2CCN(S(=O)(=O)c3ccc(C)cc3)CC2)cc1C | -3.8%
O=C(CC12CC3CC(C1)CC(CC(=O)N1CCCC1)(C3)C2)N1CCCC1 | 19.9%
CC(=O)c1c(N2CCCCC2)nc(=S)n(-c2ccccc2)c1C | -10.1%
CCn1c(=O)cc(OCC(=O)N(C)C2CCCCC2)c2ccccc21 | 5.5%
COc1ccc(NC(=O)CC2SC(=NCc3ccccc3OC)NC2=O)cc1 (stereo unspecified) | -2.2%
CSc1nnc2n(-c3ccc(C)cc3)c(=O)c3c4c(sc3n12)COC(C(C)C)C4 (stereo unspecified) | 4.7%
CNC(=O)[C@H](C)/C=C/C(NC(=O)OCc1ccccc1)c1ccc(C(=O)OC)cc1 (stereo partly specified) | 16.3%
CCC(=O)N1CCc2cc(S(=O)(=O)NC(CC(C)C)C(=O)N3CCc4ccccc43)ccc21 (stereo unspecified) | -0.3%
CCCN1C2CCCC1CC(NC(=O)NC1CCCCC1)C2 (stereo unspecified) | 7.4%
COc1ccc(OC)c(C(=O)c2coc3ccc(OC)cc23)c1 | ?
CC(=O)c1c(N2CCCCC2)nc(=S)n(Cc2ccccc2)c1C | 1.8%
Cn1c(=O)[nH]c(=O)c2c1nc(CN1CCOCC1)n2Cc1ccc(F)cc1 | 3.1%
COc1ccc(S(=O)(=O)N(CC(N)=O)C2CCCCC2)cc1Cl | 2.9%
COc1cc2c(cc1OC)CN(C(=O)c1cc(S(=O)(=O)N3CCOCC3)ccc1Cl)CC2 | -4.2%
Cc1ccnc(N2CCCC(C(=O)Nc3nnc(C)s3)C2)n1 (stereo unspecified) | ?
Cc1cc(C(=O)CSc2nc3ccccc3n2CCC#N)c(C)n1Cc1cccs1 | ?
Cc1ccc(-c2nnc(N(C)C(=O)c3ccncc3)s2)cn1 | 414.3%[activator]
CN(C(=O)COc1cc(=O)n(C)c2ccccc12)c1ccc(Cl)cc1 | 2.2%
CC1CCN(C(=O)CSc2nc3ccccc3[nH]2)CC1 | 1.4%
CC(C)=CC(=O)OCC(=O)Nc1nc(C)c(Cl)cc1Cl | 6.0%
COc1ccc(C(=O)Nc2ccc3c(c2)OCO3)cc1OC | 2.8%
CCOc1ccc(N=CC2=C(O)CC(C)(C)CC2=O)cc1 | ?

# Screens as filed in PubChem.

# Some of the compounds tested. The share of hits here may be higher or lower than overall.
